Resorufin autofl: compounds fluorescent in resorufin spectral region; Compound fluorescence, resorufin region 547/598 nm, buffer; hits give high values; max dye-equivalent concentration, M; actives 0.04% (n = 59,000); AID 588; active = above 10 nM dye equivalent; inconclusive = 1 to 10 nM; inactive = 1 nM or less; a few of its hits are not listed in these tables; also: highest value over a series up to 38 µM
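Intrinsic fluorescence profiled in the resorufin window (ex 547 nm, em 598 nm) after 15 min at room temperature in pH 8.0 Tris buffer (100 mM); responses normalized against a six-point resorufin standard series as dye-equivalent concentration.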
AID923: qHTS Assay for Allosteric/Competitive Inhibitors of Caspase-1: Spectroscopic Profiling in AFC Spectral Region; compound fluorescence, AFC spectral region (405/520 nm); almost no hit is shown here; Potency, µM (titrated, usually from 57.5 µM), without a hit: at the top dose fluorescence increase, actives largely listed as activators; actives 1.1% (n = 75,000); active = well fitted activation curve with a large enough effect; inconclusive = small, poorly fitted or top-dose-only effect;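 also: potency is read from the fitted curve at half-maximal effect; 0% is about no effect; scaled to a free AFC standard on each plate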
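Baseline compound fluorescence (AFC region, 405 nm ex/520 nm em) taken from the intercept of kinetic reads with 50 nM caspase-1 and 5 uM Ac-WEHD-AFC; normalized to an on-plate AFC standard curve; compounds titrated up to 57 uM.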
TSHR ag: activates the human thyroid stimulating hormone receptor. P16473. HEK293-CNG-TSHR cells (CNG channel as cAMP sensor), membrane potential dye, cAMP. Potency, µM (doses to about 57.1 µM), inactives show at the highest dose activation, most hits filed as activators. actives 0.48% (n = 73,000); active = well fitted activation curve of enough size with the parental cells flat; inconclusive = any curve in the parental cells; inactive = parental cells flat and receptor cells flat or falling; also: potency is read from the fitted curve at half-maximal effect; % of control where 0% means no effect; weak receptor curves with flat parental cells got no call and are not listed
Target sequence (P16473 whole entry, looked up): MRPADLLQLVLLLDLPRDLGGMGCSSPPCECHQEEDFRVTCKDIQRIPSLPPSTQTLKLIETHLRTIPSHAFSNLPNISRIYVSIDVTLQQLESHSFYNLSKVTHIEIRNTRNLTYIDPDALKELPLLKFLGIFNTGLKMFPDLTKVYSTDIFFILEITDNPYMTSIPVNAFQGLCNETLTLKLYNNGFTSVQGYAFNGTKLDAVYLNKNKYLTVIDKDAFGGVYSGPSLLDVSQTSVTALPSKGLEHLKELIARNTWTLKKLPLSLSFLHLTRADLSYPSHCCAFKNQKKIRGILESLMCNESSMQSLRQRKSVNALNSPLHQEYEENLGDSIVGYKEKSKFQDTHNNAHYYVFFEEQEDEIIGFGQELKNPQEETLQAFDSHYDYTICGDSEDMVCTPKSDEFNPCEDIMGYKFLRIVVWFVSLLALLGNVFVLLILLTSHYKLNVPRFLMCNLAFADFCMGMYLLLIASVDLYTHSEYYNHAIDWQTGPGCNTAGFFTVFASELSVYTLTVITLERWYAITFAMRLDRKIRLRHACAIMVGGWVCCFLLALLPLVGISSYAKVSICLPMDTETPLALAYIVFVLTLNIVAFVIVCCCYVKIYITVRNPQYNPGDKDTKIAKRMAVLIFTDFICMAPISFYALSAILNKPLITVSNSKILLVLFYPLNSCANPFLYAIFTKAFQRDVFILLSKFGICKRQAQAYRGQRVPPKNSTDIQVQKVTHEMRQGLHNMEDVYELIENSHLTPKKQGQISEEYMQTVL
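cAMP rise detected as CNG-channel membrane depolarization by fluorescent dye (emission 590 nm), 30 min after compound, following 60 min dye loading containing 100 uM RO 20-1724 at room temperature. Cells: TSHR/CNG HEK 293, with parental CNG HEK 293 as control.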
A647 autofl: compound fluoresces in the A647 spectral region | Compound fluorescence, A647 channel (570/671 nm), Tris buffer | max dye-equivalent concentration, M | 59,000 tested, under 10 active; active means above 1 µM dye equivalent; inconclusive means 0.1 to 1 µM; inactive means 0.1 µM or less;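 also: values scaled relative to a standard on each plate; highest value over a series up to 38 µM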
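Each compound's intrinsic fluorescence at 570 nm excitation and 671 nm emission is measured across its concentration series in 100 mM Tris, pH 8.0, after 15 min at room temperature, and reported relative to an A647 curve.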
A488 autofl: compound autofluorescence in A488 spectral region; compound autofluorescence, A488 spectral region, dye equivalency; hits give high values; max dye equivalency, M; actives 0.1% (n = 59,000); active = above 10 nM dye equivalent; inconclusive = 1 to 10 nM; inactive = 1 nM or less; about half of its hits are not listed in these tables;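 also: highest value over a series up to 38 µM; compound alone in buffer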
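Compounds pin-transferred into 100 mM Tris buffer, pH 8.0, incubated 15 min at room temperature, then imaged with 480 nm excitation/540 nm emission filters. Fluorescence converted to Alexa 488 dye-equivalent concentration via an on-plate six-point A488 standard curve.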
Numbers without * were called inactive; i = inactive; ? = inconclusive; nt = no result given; [ ] = remark or other dose. This is a subset; the hit share may differ from the screen's.

SMILES	Resorufin autofl	AID923	TSHR ag	A647 autofl	A488 autofl
COc1ccc2c(Cl)c(C(=O)NCCCn3ccnc3)sc2c1	i	2.0%	15%	1e-09	i
CCn1c2ccccc2c2cc(N)ccc21	i	1.4%	-11%	3.7e-08	i
CCCS(=O)(=O)N1CCC(C(=O)NCCCN(C)Cc2ccccc2)CC1	i	-0.1%	-1%	1.1e-08	i
COc1ccc(CCNC(=O)CCN2C(=O)C(C)Oc3ccc(C)cc32)cc1OC (centres undefined)	i	1.3%	0%	3.9e-09	i
COC(=O)C1C(=O)C2=C(CC1C)NC(C)=C(C(=O)OC(C)C)C2c1ccc(OC)c(O)c1 (centres undefined)	i	1.9%	-2%	1.3e-09	i
Cc1nc2cnc(N3CCN(C)CC3)nc2n(-c2ccccc2)c1=O	i	16%	-6%	1.4e-09	i
CCN(CC)c1nc(SCC(=O)O)nc(N(CC)CC)n1	i	-2.1%	6%	9.5e-09	i
COc1cccc(NC(=O)c2cccs2)c1	i	0.4%	-1%	7.1e-09	i
COc1ccc(S(=O)(=O)N2CCC(C(=O)Nc3cccc(Cl)c3)CC2)cc1OC	nt	3.8%	-2%	nt	nt
CCCC(C(=O)NC1CCCC1)N(Cc1cccs1)C(=O)c1snc(C(N)=O)c1N (centres undefined)	i	2.8%	?	3.8e-08	i
COc1ccc(Cn2c(=O)sc3ccccc32)cc1	i	-0.6%	25%	4.3e-08	i
COc1ccccc1C(=O)n1nc(-c2ccccc2)nc1NCc1ccco1	i	0.2%	?	1.9e-08	i
COc1ccc(NC(=O)Nc2cc(C)ccc2OC(F)F)c(OC)c1	i	-0.6%	-19%	1e-09	i
CCOC(=O)N1CCN(C(=O)c2cccc(-n3c(=S)[nH]c4cc(Cl)ccc4c3=O)c2)CC1	i	-1.6%	23%	1e-09	i
CCOc1ccc2nc(SCC(=O)N3CCCCCC3)c(C#N)cc2c1	i	12%	?	6e-08	i
COc1ccc(C2C(C(=O)N3CCN(c4ccccn4)CC3)CC(=O)N2c2ccc(OC)cc2)cc1 (centres undefined)	i	0.4%	-8%[11.4 µM]	2.2e-08	i
O=C(c1ccccc1C(=O)N1CCN(c2ccccc2F)CC1)N1CCN(c2ccccc2F)CC1	nt	2.0%	?	nt	nt
Cc1ccc(S(=O)(=O)c2nc(NCCCn3ccnc3)sc2Cl)cc1	i	2.7%	2%	1.5e-08	i
CC(C)COCC1CC2(CC(C)(c3csc(N)n3)OC2=O)C(=O)O1 (centres undefined)	nt	0.1%	0%	nt	nt
CS(=O)(=O)N(Cc1ccc(C(=O)NCc2ccco2)cc1)c1ccccc1	nt	0.2%	1%	nt	nt
COC(=O)C1(Cc2ccccc2)C=C2C(=C(c3ccccc3)C(=O)C2C)CN1 (centres undefined)	nt	21%	?	nt	nt
CCOC(=O)C1CCN(S(=O)(=O)c2cccc(-c3cn4cccnc4n3)c2)CC1	i	0.5%	-4%	5.1e-09	i
CCOC(=O)C(Sc1nnc2c3ccccc3n(CC)c2n1)C(=O)OCC	i	1.4%	nt	1.7e-08	i
COC(=O)Cc1cc(=O)n2[nH]c(C)nc2n1	i	-0.9%	-2%	2.6e-08	i
CCCc1nnc(NC(=O)CCC(=O)O)s1	nt	-0.8%	-11%	nt	nt

Next compounds follow:
SMILES	Resorufin autofl	AID923	TSHR ag	A647 autofl	A488 autofl
COc1ccccc1-c1cc(C(=O)NCc2ccco2)no1	i	-0.3%	1%[11.4 µM]	8.4e-09	i
CC1(C)CC(=O)C(C=NCCCN2CCCC2=O)=C(O)C1	nt	-0.9%	4%	nt	nt
COc1ccc(NC(=O)CCC2COc3ccccc3O2)c(OC)c1 (centres undefined)	i	-0.8%	-4%	1.2e-09	i
Cc1cccc(NC(=O)C2CCN(S(=O)(=O)c3cccc4nsnc34)CC2)n1	i	0.8%	7%	3.9e-09	i
O=C(CN1CCN(CC(=O)Nc2ccccc2Cl)CC1)Nc1ccc2c(c1)OCCO2	i	-1.3%	2%	1e-09	i
O=C(c1cccc(F)c1)N1CCC[C@@]2(CCN(c3cccc(-c4ccccc4)c3)C2)C1	i	-1.0%	2%	2.8e-08	i
Clc1ccccc1-c1nccc(NCc2cccs2)n1	i	4.4%	?	4.8e-09	i
Cc1cc(C)c(NC(=O)CN2C(=O)NC3(CCCCC3)C2=O)c(C)c1	i	0.3%	4%	3.1e-09	i
O=C(COc1ccc(Cl)cc1Cl)Nc1nc2n(n1)C(c1ccccc1)CC(=O)N2 (centres undefined)	i	2.7%	0%	5.5e-09	i
COc1ccc(-n2c(=O)c3c4c(sc3n3c(C)nnc23)CCCC4)cc1	nt	0.9%	1%	nt	nt
COc1ccc(C2N3CC4(C)CN2CC(C)(C3)C4O)cc1OC (centres undefined)	i	nt	nt	1e-09	i
CC(=O)c1c(C)n([O-])c2cc(C)ccc2[n+]1=O	i	1.3%	1%	6.1e-09	i
CCOCCn1c(CN2CCC(C)CC2)nc2c1c(=O)n(C)c(=O)n2C	nt	9.7%	-1%	nt	nt
COCCCNC(=O)c1ccc(C(=O)NCCCOC)cc1	nt	-0.4%	-4%	nt	nt
CCOc1ccc(-n2c(SCC(=O)NC(C)CC)nc3n[nH]c(C)c3c2=N)cc1 (centres undefined)	i	-0.5%	4%	2.7e-08	i
CSC1=C(C#N)C(c2ccc(C)s2)CC(=O)N1 (centres undefined)	i	nt	nt	8.5e-08	i
C#CCOC(=O)CCC(=O)Nc1cc(OC)nc(OC)n1	i	-0.8%	1%	2.5e-09	i
O=C(c1ccco1)N1CCN(C2=NS(=O)(=O)c3ccccc32)CC1	nt	-0.5%	4%	nt	nt
C[C@@H](N)[C@@H](C)Cc1ccccc1	i	3.0%[11.5 µM]	17%[11.4 µM]	1.3e-08	i
CC1CCCN(c2nc3ccccc3nc2C(C#N)C(=O)OC2CCCCC2)C1 (centres undefined)	i	3.5%	2%	1e-08	i
Oc1ccccc1C1Nc2cccc3cccc(c23)N1	i	3.5%	-35%[inhibitor]	2.2e-09	i
CCN(CC)C(=O)C1CCCN(Cc2ccccc2F)C1 (centres undefined)	nt	-0.6%	20%[11.4 µM]	nt	nt
Cc1nc(N)nc(C)c1Cc1ccccc1	i	0.5%	23%	1e-09	i
Cc1ccc(N(CC(=O)N2CCN(C3CCCCC3)CC2)S(=O)(=O)c2cccnc2)cc1	i	1.0%	7%	1e-09	i
CC[C@H](CC[C@H](C)[C@@H]1CC[C@@H]2[C@H]3CC=C4C[C@@H](O)CC[C@]4(C)[C@H]3CC[C@]21C)C(C)C	i	1.3%[25.7 µM]	nt	1e-09	i

Grouped by structure: the compounds so far containing a furan ring, fused or not
SMILES	Resorufin autofl	AID923	TSHR ag	A647 autofl	A488 autofl
COc1ccccc1C(=O)n1nc(-c2ccccc2)nc1NCc1ccco1	i	0.2%	?	1.9e-08	i
CS(=O)(=O)N(Cc1ccc(C(=O)NCc2ccco2)cc1)c1ccccc1	nt	0.2%	1%	nt	nt
COc1ccccc1-c1cc(C(=O)NCc2ccco2)no1	i	-0.3%	1%[11.4 µM]	8.4e-09	i
O=C(c1ccco1)N1CCN(C2=NS(=O)(=O)c3ccccc32)CC1	nt	-0.5%	4%	nt	nt

A second format for 2 compounds above.
Order of results – Resorufin autofl	AID923	TSHR ag	A647 autofl	A488 autofl
- CCOc1ccc(-n2c(SCC(=O)NC(C)CC)nc3n[nH]c(C)c3c2=N)cc1 (centres undefined)
    i	-0.5%	4%	2.7e-08	i
- COc1ccc(C2N3CC4(C)CN2CC(C)(C3)C4O)cc1OC (centres undefined)
    i	nt	nt	1e-09	i

Next part.
SMILES	Resorufin autofl	AID923	TSHR ag	A647 autofl	A488 autofl
CCn1cc(C(=O)NC2CCCCCC2)c2cc(OC)c(OC)cc2c1=O	i	0.4%	19%	1.6e-08	i
O=C(CSc1nnc2ccccn12)NC(=O)NC1CCCC1	i	-1.4%	17%[11.4 µM]	1e-09	i
O=C(COc1ccc(-n2cnnn2)cc1)NC(=O)NCc1ccccc1	i	-2.4%	-9%	5.3e-09	i
Cc1ccc(C)c(OCC(=O)Nc2ccc3c(c2)OCO3)c1	i	-0.9%	?	1.6e-08	i
COc1ccc(N2CCN(C(c3cccs3)C(C)NS(=O)(=O)c3ccccc3)CC2)cc1 (centres undefined)	i	-3.0%	-7%	1e-09	i
CCOC(=O)c1ccccc1NC(=O)CSc1nnc(COc2ccccc2C)n1C	i	0.7%	?	6.3e-09	i
CC1(C)NC(=O)N(CC(O)COc2cc3ccccc3cc2C(=O)N2CCCCC2)C1=O (centres undefined)	i	nt	nt	3.1e-08	i
COCCOC(=O)C1=C(C)N=C2SCCC(=O)N2C1c1cc(Br)ccc1OC (centres undefined)	i	0.0%	11%	7.5e-09	i
COc1ccc(-c2csc(NCc3ccco3)n2)cc1C	nt	1.7%	-17%	nt	nt
CN(C)c1ccc(-c2nnn(CC(=O)N3c4ccccc4CCc4ccccc43)n2)cc1	i	0.2%	-6%	1e-09	i
Cc1ccccc1-c1cncnc1N1CCNCC1	i	-3.0%	?	1e-09	i
CCOc1ccccc1NC(=O)CCS(=O)(=O)c1cccc2nonc12	i	-0.1%	-5%	8.2e-09	i
O=C1[C@H]2[C@H]3[C@H](O)[C@H](O)C/C(=N/OC[C@@H](O)COCc4ccco4)[C@H]3CC[C@@H]2C(=O)N1C1CCCCC1	nt	1.1%[11.5 µM]	-6%[11.4 µM]	nt	nt
COC(=O)c1ccccc1NC(=O)N1CSC[C@H]1C(=O)OC	i	-2.1%	-7%	5.8e-09	i
Cc1ccc([N+](=O)[O-])c(N)c1	nt	-0.5%	4%	nt	nt
CC(C)CCNC(=O)c1ccc2c(c1)N(Cc1ccccc1)C(=O)CS2=O (centres undefined)	nt	1.8%	7%	nt	nt
CCOc1ccccc1O[C@@H](c1ccccc1)[C@@H]1CNCCO1	nt	-2.2%	3%	nt	nt
CCOC(=O)c1ccccc1NC(=O)COC(=O)c1ccc(C)c(S(=O)(=O)N2CCOCC2)c1	i	-1.8%	?	1.6e-08	i
Cc1ccc2[nH]c(=O)c(CN(Cc3ccco3)C(=O)c3cccs3)cc2c1	i	-1.0%	6%	1.3e-08	i
O=C(CCSc1ccccc1)NCCSc1ccccn1	nt	0.5%	16%	nt	nt
COC(=O)C(NC(=O)c1ccco1)(Nc1nc(C)cs1)C(F)(F)F (centres undefined)	i	nt	nt	2.3e-09	i
CCOc1ncccc1C(=O)NCC1COc2ccccc2O1 (centres undefined)	i	-2.6%	?	2.8e-08	i
Cc1cc(-c2nnco2)c(C)n1-c1ccc(F)cc1	i	0.3%	?	1.9e-09	i
O=C(CCn1nc(-c2ccccc2)ccc1=O)N1CCN(c2ccccn2)CC1	i	1.7%	5%	4.8e-08	i
CN(c1nc2c(c(=O)n(C)c(=O)n2C)n1CC(=O)c1ccccc1)C1CCCCC1	i	1.7%	nt	2.8e-09	i

Next structures
SMILES	Resorufin autofl	AID923	TSHR ag	A647 autofl	A488 autofl
CC(C)(C)n1nnnc1C(c1cccnc1)N1CCN(C2CCCCC2)CC1 (centres undefined)	i	-2.1%	0%	1.1e-08	i
CN(C(=O)c1ccccn1)c1nnc(-c2cccnc2)s1	i	1.8%	-2%	1.7e-09	i
CCCCN1C(=O)C2C(c3ccc(OC)cc3O)NC(CC(C)C)(C(=O)O)C2C1=O (centres undefined)	nt	0.2%	6%	nt	nt
COc1ccc(-n2c(C)cc(C(=O)COc3ccc(-n4cnnn4)cc3)c2C)cc1	i	1.3%	-2%	1e-09	i
Nc1ccc2oc(-c3ccccc3Cl)nc2c1	i	nt	nt	1e-09	i
O=C1c2ccccc2C(=O)N1CCCCSc1nnc(-c2ccc(OC(F)F)cc2)o1	i	-1.3%	?	1.8e-08	i
CCOC(=O)c1c(C)[nH]c(C)c1C(=O)COc1ccc(NC(=O)c2ccco2)cc1	i	-0.8%	-2%	2.9e-08	i
CO[C@@H]1COC(=O)C/C=C\[C@@H](C)COC(=O)[C@H](Cc2ccccc2)NC(=O)C/C=C\[C@H]1C	nt	-2.0%[11.5 µM]	2%[11.4 µM]	nt	nt
